Vaccinia stage: blocks a specific stage of Vaccinia orthopoxvirus infection, primary screen, cell-based, single point; Vaccinia-infected cells, mCherry/Venus stage reporter fluorescence; stronger effect = lower value; some inactives read as strong as hits; AID 1053133, 2014; activity change (mCherry), % (test concentration not listed); 89,000 tested, 0.01% active;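 active = mCherry past -33% and 40 or more points under the early reporter, replicates agreeing; inconclusive = past -33% without that gap or agreement; tested in A549 cells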;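 also: scaled between vehicle wells and reference inhibitor wells; 23 nL library stock went into each well; one replicate is shown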
Vaccinia stage Venus: further read-out of Vaccinia stage, marked with its call; activity change (Venus), %; measured here: Venus reporter, other viral stage;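 negative = less Venus signal; first of two replicates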
Active calls of the source: *; ? = inconclusive; · = no result given.

Screens in order – Vaccinia stage	Vaccinia stage Venus
CC(C)C#Cc1cnc2c(c1)C(=O)N([C@H](C)CO)C[C@@H](C)[C@@H](CN(C)C(=O)c1cnccn1)O2
    27.7	2.6
Cc1cc(C(=O)Nc2cccc3c2O[C@@H](CN(C)CC2CC2)[C@H](C)CN([C@H](C)CO)C3=O)n(C)n1
    3.3	5.4
O=C(Nc1ccc2c(c1)[C@H]1C[C@@H](CC(=O)N3CCCCC3)O[C@H](CO)[C@H]1O2)NC1CCCCC1
    1.3	-1.2
CC(C)CC#Cc1ccc2c(c1)O[C@@H](CN(C)C(=O)c1ccccc1F)[C@@H](C)CN([C@@H](C)CO)S2(=O)=O
    ?	·
C[C@H]1CN([C@@H](C)CO)C(=O)c2cccc(NC(=O)c3ccc(-c4nccs4)cc3)c2O[C@@H]1CN(C)C(=O)Nc1ccc(F)cc1
    9.1	10.5
O=C(C[C@@H]1C=C[C@@H](NC(=O)NC2CCCCC2)[C@H](CO)O1)NCc1ccc(F)cc1
    2.4	10.6
CCCNC(=O)[C@H]1[C@H](CO)[C@H]2Cn3c(cccc3=O)[C@@H]1N2C(=O)Nc1cc(F)ccc1F
    10.6	8.2
CC=Cc1ccc2n(c1=O)C[C@H]1[C@H](CO)[C@@H](C(=O)NCCC)[C@@H]2N1C(=O)c1ccccc1F (mixture of isomers)
    4.0	2.0
CC(C)NC(=O)N(C)C[C@H]1OCCCC[C@H](C)Oc2ccc(NC(=O)CCC(F)(F)F)cc2C(=O)N([C@H](C)CO)C[C@@H]1C
    9.6	2.1
CC(C)NC(=O)Nc1ccc2c(c1)C(=O)N([C@@H](C)CO)C[C@@H](C)[C@H](CN(C)C(=O)NC1CCCCC1)OCCCC[C@H](C)O2
    6.3	-4.5
C[C@H]1CN([C@@H](C)CO)C(=O)CCCn2cc(nn2)CO[C@@H]1CN(C)S(=O)(=O)c1ccc2ccccc2c1
    ?	·
COc1ccc(S(=O)(=O)N(C)C[C@@H]2Oc3ccc(NC(=O)CCCCCC(=O)Nc4ccccc4N)cc3C(=O)N([C@H](C)CO)C[C@@H]2C)cc1
    12.5	13.4
CS(=O)(=O)N1[C@H](C#N)[C@@H](c2ccc(C#Cc3cccc(F)c3)cc2)[C@@H]1CO
    -11.5	-8.9
C[C@H]1CN([C@@H](C)CO)C(=O)c2cccc(NC(=O)c3nc4ccccc4s3)c2O[C@H]1CN(C)Cc1ccc2c(c1)OCO2
    -23.0	-24.0
CO[C@H]1CN(C)C(=O)c2cc(NC(=O)Nc3c(C)noc3C)ccc2OC[C@H](C)N(CC2CC2)C[C@H]1C
    -3.7	-9.6
C[C@@H]1CN([C@H](C)CO)S(=O)(=O)c2ccc(C#CCC3CCCC3)cc2O[C@H]1CN(C)C(=O)CN(C)C
    ?	·
C[C@@H]1CN([C@@H](C)CO)C(=O)Cc2cc(NC(=O)CCN3CCOCC3)ccc2O[C@H]1CN(C)C(=O)Nc1cccc2ccccc12
    7.0	10.7
C/C=C/c1cnc2c(c1)C(=O)N([C@H](C)CO)C[C@H](C)[C@H](CN(C)S(=O)(=O)c1cccs1)O2
    6.3	-4.5
COC(=O)[C@H]1[C@H](CO)[C@H]2Cn3c(ccc(-c4ccccc4)c3=O)[C@@H]1N2CC1CCOCC1
    3.5	15.1
O=C(C[C@@H]1CC[C@@H]2[C@H](COC[C@H](O)CN2Cc2ccc(F)cc2)O1)NCc1ccncn1
    13.7	9.1
C[C@H]1CN([C@@H](C)CO)C(=O)c2cccc(NS(=O)(=O)c3ccccc3)c2O[C@@H]1CN(C)Cc1ccc(Oc2ccccc2)cc1
    -28.7	-28.9
CCC(=O)N(C)C[C@H]1Oc2cc(C#Cc3cccnc3)ccc2S(=O)(=O)N([C@H](C)CO)C[C@H]1C
    8.6	2.0
CCCNC(=O)N1CCC2(CC1)CN(C(=O)NC(C)C)[C@@H](CO)c1c2c2ccc(OC)cc2n1C
    14.2	7.9
OC[C@@H]1[C@H](c2ccccc2)C2(CN(Cc3nccs3)C2)N1Cc1cccnc1
    -6.2	5.1
C[C@H]1CN([C@@H](C)CO)C(=O)Cc2cc(NC(=O)C3CC3)ccc2O[C@H]1CN(C)S(=O)(=O)c1ccc(F)cc1
    5.4	7.2
CCC(=O)N(C)C[C@H]1Oc2cc(-c3ccccc3C)ccc2S(=O)(=O)N([C@@H](C)CO)C[C@H]1C
    11.9	6.1
N#Cc1ccc(-c2ccc3c(c2)[C@@H]2[C@@H](CCN2C(=O)C2CCCC2)[C@H](CO)N3)cc1
    -17.9	-5.6
CCS(=O)(=O)N1CC(=O)N2[C@H](CO)[C@@H](c3ccc(C#CC4CCCC4)cc3)[C@H]2C1
    1.8	-4.5
N#C[C@@H]1[C@@H](c2ccc(-c3cccnc3)cc2)[C@H](CO)N1C(=O)Nc1ccc(F)cc1
    -4.1	-5.2
CCC(=O)N(C)C[C@@H]1Oc2ncc(C#Cc3ccccc3)cc2C(=O)N([C@H](C)CO)C[C@H]1C
    9.0	0.9

Rewritten as a markdown table: 4 of the compounds above
| SMILES | Vaccinia stage | Vaccinia stage Venus |
| --- | --- | --- |
| Cc1cc(C(=O)Nc2cccc3c2O[C@@H](CN(C)CC2CC2)[C@H](C)CN([C@H](C)CO)C3=O)n(C)n1 | 3.3 | 5.4 |
| CC(C)CC#Cc1ccc2c(c1)O[C@@H](CN(C)C(=O)c1ccccc1F)[C@@H](C)CN([C@@H](C)CO)S2(=O)=O | ? | · |
| CO[C@H]1CN(C)C(=O)c2cc(NC(=O)Nc3c(C)noc3C)ccc2OC[C@H](C)N(CC2CC2)C[C@H]1C | -3.7 | -9.6 |
| C[C@H]1CN([C@@H](C)CO)C(=O)c2cccc(NS(=O)(=O)c3ccccc3)c2O[C@@H]1CN(C)Cc1ccc(Oc2ccccc2)cc1 | -28.7 | -28.9 |

(list continues)
Screens in order – Vaccinia stage	Vaccinia stage Venus
Cc1ccc(S(=O)(=O)Nc2ccc3c(c2)C(=O)N([C@@H](C)CO)C[C@H](C)[C@@H](CN(C)Cc2ccc(C(=O)Nc4ccccc4N)cc2)OCCCC[C@@H](C)O3)cc1
    -20.0	-13.3
C[C@@H]1CN([C@@H](C)CO)C(=O)c2cc(NC(=O)CCCN(C)C)ccc2O[C@@H]1CN(C)S(C)(=O)=O
    10.0	2.9
O=S(=O)(c1ccccc1)N1CCCCN2[C@H](CO)[C@@H](c3ccc(-c4cncnc4)cc3)[C@H]2C1
    6.2	-3.4
CCCC(=O)Nc1ccc2c(c1)C(=O)N(C)C[C@H](OC)[C@@H](C)CN(Cc1cccc(F)c1)[C@H](C)CO2
    -0.2	-16.1
COc1ccc2c3c([nH]c2c1)[C@@H](CO)N(CC1CC1)CC31CN(C(=O)C2CCOCC2)C1
    16.2	14.1
C[C@@H]1CCCCO[C@@H](CN(C)Cc2ccc(C(F)(F)F)cc2)[C@H](C)CN([C@H](C)CO)C(=O)c2cc(NC(=O)Nc3ccc4c(c3)OCO4)ccc2O1
    1.6	3.5
CCCNC(=O)N1[C@@H]2c3ccc(-c4cccc(OC)c4)c(=O)n3C[C@H]1[C@H](CO)[C@H]2C(=O)NC1CCC1
    -7.5	5.7
O=C(C[C@@H]1C=C[C@H](NC(=O)Nc2ccc3c(c2)OCO3)[C@H](CO)O1)NCCCN1CCOCC1
    0.8	-0.8
C[C@H]1CN([C@@H](C)CO)C(=O)Cc2cc(NC(=O)C3CCCCC3)ccc2O[C@@H]1CN(C)C(=O)NC1CCCCC1
    9.3	2.9
CCNC(=O)C[C@@H]1C=C[C@@H](NC(=O)C2CCOCC2)[C@H](CO)O1
    9.2	8.5
C[C@H](CO)N1C[C@H](C)[C@H](CN(C)C(=O)Nc2ccc(C(F)(F)F)cc2)OCCCC[C@H](C)Oc2ccc(NS(C)(=O)=O)cc2C1=O
    ?	·
C[C@@H]1CN([C@@H](C)CO)C(=O)c2cc(-c3cccc(C#N)c3)cnc2O[C@@H]1CN(C)Cc1cncnc1
    26.3	23.2
Cc1noc(C)c1S(=O)(=O)N(C)C[C@@H]1OCCCC[C@H](C)Oc2ccc(NS(=O)(=O)c3ccccc3)cc2C(=O)N([C@@H](C)CO)C[C@H]1C
    -15.2	-18.0
O=C(C[C@H]1C[C@H]2c3cc(NC(=O)C4CCOCC4)ccc3O[C@H]2[C@@H](CO)O1)NCc1ccccc1
    -1.7	-8.8
N#C[C@@H]1[C@H](c2ccc(C#CC3CCCCC3)cc2)[C@@H](CO)N1C(=O)Cc1ccccn1
    -31.9	-20.6
C[C@@H](NC(=O)C[C@H]1CC[C@H]2[C@@H](COC[C@H](O)CN2C)O1)c1ccccc1
    2.0	4.1
COc1ccc2c3c([nH]c2c1)[C@@H](CO)N(C(C)=O)CC31CCN(S(=O)(=O)c2ccccc2)CC1
    -3.3	-9.0
COc1ccc(C#Cc2ccc([C@H]3[C@@H](CO)N4CCCCN(C(=O)Cc5ccncc5)C[C@H]34)cc2)cc1
    -31.3	-15.6
C[C@H]1CN([C@@H](C)CO)S(=O)(=O)c2ccc(C#Cc3ccccc3)cc2O[C@@H]1CN(C)C(=O)c1ccccn1
    ?	·
CC(C)NC(=O)N(C)C[C@H]1Oc2cc(-c3cccnc3)ccc2S(=O)(=O)N([C@H](C)CO)C[C@H]1C
    15.7	9.2
CCNC(=O)C[C@H]1CC[C@@H]2[C@H](COC[C@@H](O)CN2C(=O)c2cc(Cl)cc(Cl)c2)O1
    16.9	1.2
CC(C)CC#Cc1cnc2c(c1)C(=O)N([C@H](C)CO)C[C@@H](C)[C@H](CN(C)C(=O)c1cccnc1)O2
    19.3	13.7
C[C@@H]1CN([C@@H](C)CO)C(=O)Cc2cc(NC(=O)Nc3ccc(F)cc3)ccc2O[C@@H]1CN(C)Cc1ccc(Oc2ccccc2)cc1
    -30.4	-18.6
Cc1noc(C)c1NC(=O)N(C)C[C@@H]1Oc2ccc(NC(=O)C3CC3)cc2CC(=O)N([C@@H](C)CO)C[C@@H]1C
    8.6	4.8
C[C@H]1CN([C@@H](C)CO)C(=O)c2cc(NC(=O)CCCN(C)C)ccc2O[C@@H]1CN(C)S(=O)(=O)c1ccccc1
    16.5	15.4
C[C@H]1CN([C@@H](C)CO)S(=O)(=O)c2ccc(-c3cccc(C#N)c3)cc2O[C@@H]1CN(C)C(=O)c1cccnc1
    25.3	11.3
O=C(NC1CCCC1)N[C@H]1CC[C@@H](CC(=O)N2CCOCC2)O[C@H]1CO
    -16.2	-1.6
C[C@H](CO)N1C[C@H](C)[C@H](CN(C)Cc2ccc(F)cc2)Oc2ncc(C3=CCCC3)cc2C1=O
    2.0	-1.1
C[C@H](CO)N1C[C@H](C)[C@H](CN(C)C(=O)c2cccnc2)Oc2ncc(Br)cc2C1=O
    18.1	9.2
COc1ccc(C(=O)Nc2ccc3c(c2)C(=O)N(C)C[C@@H](OC)[C@@H](C)CN[C@H](C)CO3)cc1
    -1.6	1.4
COc1ccc2c3c(n(C)c2c1)[C@H](CO)N(S(C)(=O)=O)CC31CCN(C(=O)C2CCCC2)CC1
    5.4	0.8
CCCC#Cc1ccc([C@H]2[C@@H](CO)N3C(=O)CN(C(=O)CN4CCOCC4)C[C@@H]23)cc1
    -7.7	-8.8
C[C@@H]1CN([C@H](C)CO)S(=O)(=O)c2ccc(Br)cc2O[C@H]1CN(C)C(=O)c1ccc2c(c1)OCO2
    7.5	5.3
C[C@H](CO)N1C[C@H](C)[C@H](CN(C)Cc2ccncc2)Oc2ccc(NC(=O)C3CC3)cc2C1=O
    -10.4	-2.6
COc1ccc(-c2ccc3c(c2)[C@H]2[C@H](CCN2S(=O)(=O)C2=NC(C)C=N2)[C@@H](CO)N3C)cc1 (stereo not given in full)
    -25.8	-22.1
CC(C)NC(=O)N(C)C[C@@H]1Oc2cc(C#Cc3ccccn3)ccc2S(=O)(=O)N([C@H](C)CO)C[C@H]1C
    8.3	9.3
CCC(=O)NC[C@@H]1[C@@H](c2ccc(-c3ccc(F)cc3)cc2)[C@@H](CO)N1C(=O)CC
    1.5	1.2
CC(C)NC(=O)N1C[C@@H]2[C@H](c3ccccc31)[C@@H](CO)N2C(=O)c1cccnc1
    3.0	5.0
CCCNC(=O)N(C)C[C@H]1Oc2ncc(C#C[C@H](C)O)cc2C(=O)N([C@@H](C)CO)C[C@H]1C
    18.3	16.0
C[C@H](CO)N1C[C@H](C)[C@H](CN(C)CC2CCCCC2)Oc2cc(C3=CCCC3)ccc2S1(=O)=O
    -10.8	-12.6
C[C@@H]1CN([C@@H](C)CO)C(=O)c2cc(-c3ccc(F)cc3)cnc2O[C@H]1CN(C)C(=O)c1ccc(F)cc1
    -11.3	3.0
C[C@@H]1CN([C@@H](C)CO)C(=O)c2cc(NS(=O)(=O)c3ccc(Cl)cc3)ccc2O[C@@H](C)CCCCO[C@@H]1CN(C)C(=O)NC1CCCCC1
    -32.0	-13.9
O=C(C[C@H]1CC[C@H](NS(=O)(=O)c2ccccc2)[C@@H](CO)O1)N1CCc2ccccc2C1
    5.9	-4.8
C[C@H]1CN([C@@H](C)CO)C(=O)c2cc(NC(=O)Nc3ccc(F)cc3)ccc2O[C@H]1CN(C)C(=O)Nc1ccc(F)cc1
    12.3	10.0
C[C@@H]1CN([C@@H](C)CO)C(=O)Cc2cc(NC(=O)C3CC3)ccc2O[C@@H]1CN(C)C(=O)NC1CCCCC1
    9.6	0.1
CNC[C@H]1Oc2ccc(NC(=O)NC3CCCCC3)cc2C(=O)N([C@@H](C)CO)C[C@@H]1C
    1.3	8.7
C[C@@H]1CN([C@H](C)CO)C(=O)c2cc(C3=CCCCC3)cnc2O[C@@H]1CN(C)Cc1ccccc1
    -19.2	-14.5
COc1cccc(NC(=O)N(C)C[C@@H]2Oc3cc(/C=C/c4ccccc4)ccc3S(=O)(=O)N([C@@H](C)CO)C[C@@H]2C)c1
    -34.0	-32.5
C[C@H](O)C#Cc1ccc([C@@H]2[C@@H](CO)N3CCCCN(S(=O)(=O)c4ccccc4)C[C@@H]23)cc1
    -4.9	-22.1

Assay outcomes deposited in PubChem BioAssay by Broad Institute.

These rows are one share of the data; the hit share may differ from the screen's.
